Compound activity: PubChem, several laboratories
PABP polyA inh: blocks human PABP binding to poly(A) RNA | inhibition, % at 35 µM | fluorescence polarization | AID 2014 | hit rate 1% among 290,000 | P11940;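 active = 50% or more with normal probe brightness, or confirmed in later tests; about a fifth of its hits are not listed in these tables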;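 note: calls also rest on retests at 20 µM and on dose response follow-up; controls were probe without protein and protein plus probe with vehicle; some compounds called inactive have numbers as strong as hits; many hits fall short of the cut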
Target sequence (P11940 whole entry, looked up): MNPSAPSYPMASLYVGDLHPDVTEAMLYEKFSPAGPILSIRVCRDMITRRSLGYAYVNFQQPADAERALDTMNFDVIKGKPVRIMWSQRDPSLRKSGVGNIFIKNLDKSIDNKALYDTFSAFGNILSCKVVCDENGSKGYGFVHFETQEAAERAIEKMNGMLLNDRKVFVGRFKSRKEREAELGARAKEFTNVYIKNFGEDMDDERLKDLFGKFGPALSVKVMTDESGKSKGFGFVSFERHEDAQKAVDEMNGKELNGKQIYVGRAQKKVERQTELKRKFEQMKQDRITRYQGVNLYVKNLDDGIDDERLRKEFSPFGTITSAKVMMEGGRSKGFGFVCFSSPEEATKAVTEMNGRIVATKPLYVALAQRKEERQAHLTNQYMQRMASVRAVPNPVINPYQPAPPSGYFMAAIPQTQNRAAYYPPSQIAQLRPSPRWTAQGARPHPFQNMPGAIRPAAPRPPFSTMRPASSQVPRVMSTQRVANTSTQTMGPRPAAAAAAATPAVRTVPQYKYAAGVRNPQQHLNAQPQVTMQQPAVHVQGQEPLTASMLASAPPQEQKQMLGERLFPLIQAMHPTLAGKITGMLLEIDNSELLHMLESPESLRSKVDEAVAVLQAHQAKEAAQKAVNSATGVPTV
CSC inhib: cancer stem cell inhibition; cancer stem cell-like cells viability, luminescence; inhibition, % at 7.5 µM; hit rate 1.1% among 300,000;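 active = mean at 75% or more and at least half the replicates too; tested in HMLE shEcad cells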;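 note: 0% = median of negative and 100% = median of positive control wells; the first replicate is given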
Yeast UUG start: alters start codon recognition fidelity in yeast; hit rate 0.13% among 350,000; AID 602363; S. cerevisiae UUG-firefly luciferase reporter, luminescence/redox ratio; activity score, % at 18.7 µM;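 active = replicate mean at a twofold rise or more, about +100% in these data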;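 note: firefly luciferase made from a UUG start codon reports start codon fidelity; reporter light over untreated wells divided by growth signal over untreated wells; some hits fall short of that in this replicate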
Rce1 inh: blocks yeast Ras-converting enzyme; hit rate 0.27% among 290,000; yeast membranes, quenched prenylated peptide cleavage fluorescence; calls only;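 active = fall in fluorescence gain of 50% or more versus controls, with final raw signal at or below 3038400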;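 note: plate controls were neutral control wells for no effect and wells lacking membranes for full effect; tested at 10 µM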
Target sequence (Q03530 whole entry, looked up): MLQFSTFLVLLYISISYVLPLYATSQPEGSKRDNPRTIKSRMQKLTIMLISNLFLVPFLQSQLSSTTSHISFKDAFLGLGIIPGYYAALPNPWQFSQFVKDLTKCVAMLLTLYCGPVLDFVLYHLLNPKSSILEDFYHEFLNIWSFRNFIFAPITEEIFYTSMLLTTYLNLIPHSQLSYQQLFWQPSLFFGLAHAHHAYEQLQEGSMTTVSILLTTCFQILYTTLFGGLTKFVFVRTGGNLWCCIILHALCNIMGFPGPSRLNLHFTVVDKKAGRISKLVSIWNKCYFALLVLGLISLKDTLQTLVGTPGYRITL
Env fusion inh: HIV envelope-mediated fusion inhibition. HeLa-JRFL Env/CEM21 cell fusion, luciferase. inhibition, % at 12.3 µM. hit rate 1.1% among 360,000;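 active = mean replicate inhibition score of at least 50 and every replicate individually at or above 50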;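 note: 0% = plate neutral controls and 100% = maraviroc near 300 nM; one replicate is shown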
eIF4H FP inh: inhibitors of RNA binding by human eIF4H. Q15056. eIF4H fluorescence polarization binding assay. inhibition, % at 35 µM. hit rate 0.94% among 290,000. AID 2012;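 active = 50% or more with normal probe brightness, or confirmed in later tests; about a fifth of its hits are not listed in these tables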;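 note: calls also rest on retests at 20 µM and on dose response follow-up; 0% = protein and probe with vehicle and 100% = probe without protein; strong numbers were not always called active; many hits fall short of the cut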
MT1-MMP act inh: MT1-MMP (human) activation inhibition; P50281; HT1080 RFP-PRO-GFP cells, GFP/RFP ratio fluorescence, overnight; percent of plate control window, DMSO zero; GFP/RFP ratio change, % at 20 µM; hit rate 0.061% among 360,000;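 active = GFP/RFP ratio change of at least 30% with cell ATP level not reduced by more than half and red fluorescence within 50% of control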; note: strong numbers were not always called active
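system = RFP-PRO-GFP reporter HT1080 cells | dosing = 20 µM single dose, 1% DMSO | timing = overnight cell settling, then overnight compound exposure, 37 °C, 5% CO2 | read-out basis = GFP/RFP fluorescence ratio | controls = DMSO and RFP-L50D-GFP cell wells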
MT1-MMP act inh RFP: also measured in MT1-MMP act inh; calls as there; RFP signal change, %; measured here: RFP expression control read;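 0 = vehicle wells; hits needed this value within 50% of zero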
* = called active by the depositor; i = inactive; . = not tested or not shown. Hits appear at their usual frequency. About 3% of those tested had a hit in this group.

Every second line gives: PABP polyA inh	CSC inhib	Rce1 inh	MT1-MMP act inh	MT1-MMP act inh RFP	Env fusion inh	Yeast UUG start	eIF4H FP inh
CCCn1nc(NC(=O)c2cccs2)c2cc3cc(C)ccc3nc21
→ 21	19	i	-2	-9	2	-16	-6
CCN1CCN(CCCCOc2ccccc2F)CC1
→ 16	20	i	2	-1	-43	-14	-4
CCCNC(=O)C1(C)CCN(Cc2ccc(C(=O)OCC)cc2)C1 (stereo unspecified)
→ .	.	.	-2	-2	-2	3	.
CCOC(=O)c1ccc(NC(=S)Nc2ccc(C)cc2)cc1
→ -7	8	i	2	5	-15	-15	1
CN(CC(=O)N1CCN(c2ccccc2)CC1)S(=O)(=O)c1cccs1
→ -2	-7	i	1	1	-8	.	2
Cc1noc(NS(=O)(=O)c2ccc(NC(=O)C(C)C)cc2)c1C
→ -7	3	.	1	5	-4	-15	4
CC(O)(c1cccc(F)c1)c1nc(-c2ccccc2)cs1 (stereo unspecified)
→ .	.	.	6	5	9	-12	.
N#C/C(=C\c1ccc(C#N)cc1)C(=O)c1ccccc1
→ 5	11	i	-3	3	6	-28	8
COc1cc(-c2nccc3cc4c(cc23)OCO4)cc(OC)c1OC
→ .	.	.	-6	-11	-14	-13	.
NC1=NC[C@H](Cc2ccc(O)cc2)N1CCC12CC3CC(CC(C3)C1)C2
→ -18	-7	i	3	-3	0	-4	-8
CC(=O)N1NC(=Nc2ccccc2)SC1(C)C
→ -5	-9	i	-10	-19	-15	.	4
Cc1nc(NC(=O)COC(=O)c2cccs2)c(Cl)cc1Cl
→ .	.	.	-3	2	2	-5	.
CN(C)c1ccc(NC(=O)c2sc(SCC(=O)Nc3nccs3)nc2N)cc1
→ 4	18	i	-3	-3	-62	-20	2
O=C(N/N=C1\CCSC1)c1cc(Cl)ccc1O
→ 12	-3	i	2	4	46	.	0
C=CCN1C(=O)/C(=C\c2cccc(OC(=O)c3ccco3)c2)SC1=S
→ 2	1	i	1	4	-3	-18	-15
CC(O)C(NS(=O)(=O)c1ccc(Cl)cc1)C(=O)OCc1cc([N+](=O)[O-])cc2c1OCOC2 (stereo unspecified)
→ 1	-2	i	.	.	11	-4	-6
COc1ccc(S(=O)(=O)N(C)CC(=O)NCCN2CCOCC2)cc1Cl
→ -3	-14	i	4	6	-5	-20	-4
CC(C)c1ccc(NC(=O)CSc2nc(=O)n(CCN3CCOCC3)c3c2CCC3)cc1
→ .	-12	i	6	-2	-7	.	.
COc1ccccc1C(=O)NC(=O)CSc1nnnn1C
→ .	-8	.	2	1	.	-1	.
COc1ccc(NS(=O)(=O)c2ccc(N3CCOCC3)c(NC(=O)/C=C/C(=O)O)c2)cc1
→ .	.	.	1	-7	-1	13	.
Cc1cc(C)nc(Nc2n[nH]c(Cc3ccccc3)n2)n1
→ -2	.	i	.	.	.	.	0
Cc1cc(C)c2c(N)c(C(=O)Nc3ccccc3Br)sc2n1
→ 7	-4	i	-4	-6	-10	-3	4
Cc1ccc(C)c(OCCn2cc(C(=O)O)c3ccccc32)c1
→ -6	-14	i	2	3	11	.	6
Cc1nc2ccc(NC(=O)C3(C)CCCN(C(C)C)C3)cc2o1 (stereo unspecified)
→ .	.	.	1	5	16	-4	.
CCCCc1nc(SCC(=O)Nc2ncccn2)n[nH]1
→ -1	-8	i	2	1	.	-1	-3
O=[N+]([O-])c1ccc(N/N=C2\CC3CC=CC23)cc1 (stereo unspecified)
→ 15	-9	i	-2	-7	-66	.	-1
Cc1ccn2c(C(=O)N/N=C\c3cccs3)c(C)nc2c1
→ 10	.	i	1	6	5	-22	-8
CCCCC1CCC(C(=O)Nc2ccc(S(=O)(=O)Nc3nccs3)cc2)CC1 (stereo unspecified)
→ 2	26	i	-5	-5	.	1	16
N#Cc1ccc(OCC(=O)OCC(=O)Nc2ccc(N3CCOCC3)cc2)cc1
→ .	-10	i	2	-1	.	.	.
S=C(Nc1ccc(Cl)cc1)N(CCCN1CCOCC1)Cc1ccco1
→ -8	5	i	0	-5	21	-22	-2
COc1ccc(OCC(=O)NN2Cc3ccccc3C2=N)cc1
→ 10	.	i	6	4	.	-5	2
CC(=O)N1CCCc2ccc(NS(=O)(=O)c3ccc(C)cc3)cc21
→ .	.	i	-10	-17	-5	-3	.
O=C(NCCN1CCCCCC1)C1CC(=O)N(CCc2ccccc2)C1 (stereo unspecified)
→ -1	-6	i	3	6	.	3	-1
CCOC(=O)C1(C)C=C(Nc2ccccc2)C(=O)N1c1ccccc1 (stereo unspecified)
→ 5	-9	i	-5	-4	-14	-10	-11
c1ccc(-c2nnnn2-c2ccccc2)cc1
→ 4	-7	i	-3	2	-34	-12	3
COc1ccccc1CNC(=O)c1cc(-c2ccc(F)cc2C)n[nH]1
→ .	.	.	5	0	-7	2	.
CN(C(=O)c1ccc(OC2CCN(Cc3ccccn3)CC2)cc1)C1CCCCC1
→ -12	10	i	-3	0	2	-22	0
Cc1ccc(/C=N/NC(=O)c2ccc(NC(=O)c3ccccc3Cl)cc2)o1
→ 5	-8	.	-3	0	2	-5	12
O=C(CNC(=O)C1COc2ccccc2O1)N/N=C\c1cccc(O)c1 (stereo unspecified)
→ 0	5	i	1	3	-2	.	-1
Cc1ccc(S(=O)(=O)N2CCC(C(=O)OCC(=O)N3CCc4ccccc43)CC2)cc1
→ -6	-15	i	-2	2	-38	-6	-5
COC(=O)c1ccccc1-c1ccc(/C=N/NC(N)=O)o1
→ 1	0	i	1	1	28	-14	1
Cn1c(=O)c2c(SCc3c(F)cccc3Cl)nc(CC(C)(C)C)nc2n(C)c1=O
→ -9	36	i	-5	-7	-13	-5	-10
CCc1ccc(N2C(=O)CN(CC(=O)OC)C2=S)cc1
→ -4	0	i	-6	0	14	.	-7
CCc1nc2ccc(C(=O)NCCCN3CCCC3=O)cn2c1N(C)Cc1ccc(OC)cc1
→ .	.	.	-4	5	19	-6	.
COCCNC(=O)CSc1nc2cc(OC)c(OC)cc2c(=O)n1CCC1=CCCCC1
→ 2	.	i	-2	-4	-15	-19	2
Cc1ccn2cc(CCNC(=O)COc3ccccc3)nc2c1
→ -2	-3	i	2	1	3	.	4
Nc1ccc2nc3c(c(Cl)c2c1)CCCC3
→ 7	48	i	4	0	8	-10	3
CC1CCc2sc(C(=O)N=Nc3c(O)[nH]c4ccccc34)cc2C1 (stereo unspecified)
→ 9	-5	i	.	.	.	.	6
CCN(c1ccccc1)S(=O)(=O)c1ccc(OC)c(NS(=O)(=O)c2cccs2)c1
→ -13	-2	i	-2	-2	6	.	8
CCn1nccc1NC(=O)c1csc([C@@H]2C[C@H](O)[C@@H](CO)O2)n1
→ .	.	.	1	6	-5	-9	.
CC1(C)CC(=O)C=C(NC2CC(C)(C)NC(C)(C)C2)C1
→ 4	-16	.	5	3	-29	-6	-2
O=S(=O)(Nc1nc(-c2sccc2Cl)cs1)c1cc(Cl)ccc1Cl
→ 16	119*	i	-3	3	.	87	11
CC1(C)Cc2ccccc2-c2nc3ccccc3c(=O)n21
→ -8	46	i	0	-5	.	1	-2
COc1ccc(C#Cc2ccc3c(c2)c(=O)c2ccccc2n3C)cc1
→ 15	33	i	1	0	-23	17	10
CC(=O)Nc1ccc(OCC(=O)NCc2ccc3c(c2)OCO3)cc1
→ 0	.	i	-1	1	3	-10	-2
O=C(CN1CCN(c2ccc(F)cc2)CC1)Nc1ccc(F)c(F)c1
→ 10	2	i	3	1	.	-15	-4
CC(=O)Nc1ccc(Br)cc1C(=O)C(=O)O
→ 3	-15	i	-1	2	.	.	2
BrCCOCCOc1ccc2ccccc2c1
→ -14	-8	i	0	2	.	.	-9
O=C(CC1C(=O)NCCN1C(=O)Nc1ccccc1)Nc1ccc2c(c1)OCO2 (stereo unspecified)
→ 3	-10	i	2	2	.	.	5
COc1ccc2c(c1)CC/C(=C\c1ccc(OC)c(Cn3nc(C)cc3C)c1)C2=O
→ -7	12	i	-3	-17	-39	-11	4

Some entries already given, limited to PABP polyA inh and eIF4H FP inh:
mol	PABP polyA inh	eIF4H FP inh
CC(=O)Nc1ccc(OCC(=O)NCc2ccc3c(c2)OCO3)cc1	0	-2
Cc1cc(C)nc(Nc2n[nH]c(Cc3ccccc3)n2)n1	-2	0
NC1=NC[C@H](Cc2ccc(O)cc2)N1CCC12CC3CC(CC(C3)C1)C2	-18	-8

Later entries.
Every second line gives: PABP polyA inh	CSC inhib	Rce1 inh	MT1-MMP act inh	MT1-MMP act inh RFP	Env fusion inh	Yeast UUG start	eIF4H FP inh
CC1=C(C(=O)OCC2CCCO2)C(c2coc3ccccc3c2=O)C2=C(CC(C)(C)CC2=O)N1 (stereo unspecified)
→ 8	4	i	-2	0	22	.	1
C=CCN(CC=C)C(=O)c1cccc(OC2CCN(S(=O)(=O)N(C)C)CC2)c1
→ -9	8	i	3	-7	2	3	-13
Cc1ccc(S(=O)(=O)CC(=O)Nc2ccc(F)c(F)c2F)cc1
→ -1	11	i	3	2	19	-14	-2
Cc1ccccc1OCC(=O)Nc1ccccc1NC(=O)c1ccco1
→ -2	-12	i	-1	-1	14	-15	-2
O=C(CNC(=O)c1ccccc1Cl)N/N=C/C=C/c1ccccc1
→ 4	-10	i	3	1	-2	.	-8
COC(=O)Cc1ccc(OC2(C)CCN(Cc3ccc4c(c3)OCCO4)C2)cc1 (stereo unspecified)
→ .	.	.	1	3	-13	-10	.
CC(=O)N1C(=O)NC2=C(C(=O)CCC2)C1c1cccc([N+](=O)[O-])c1 (stereo unspecified)
→ 8	7	i	0	2	9	.	-5
O=C(NCCCCc1ccccc1)c1ccccc1Cl
→ -4	-16	i	4	-1	14	.	16
Cc1ccccc1CNC(=O)C(=O)Nc1nccs1
→ 8	-10	i	3	5	3	.	2
COc1cccc(NC(=O)c2nn(C)c(C(=O)Nc3cccc(OC)c3)c2[N+](=O)[O-])c1
→ 2	-11	i	-2	-3	-5	-21	-14
COc1ccc(CNS(=O)(=O)c2cc3c(cc2C)N(C)CCO3)cc1
→ -10	39	i	0	2	-150	-12	-5
COc1ccccc1/C=N/NC(=O)c1nnn(-c2nonc2N)c1CSC1=NCCS1
→ -8	-2	i	5	7	.	-10	-10
O=C(COC(=O)c1ccc(O)cc1)Nc1cccc(S(=O)(=O)N2CCCCC2)c1
→ 4	19	i	0	-6	12	-12	-7
O=C(NC1CCCC1)C1CCC(=O)N1C1CCCC1 (stereo unspecified)
→ -2	-4	i	-4	-1	.	-18	6
O=C(Nc1cc(C(F)(F)F)ccc1N1CCOCC1)c1cccnc1Cl
→ -11	-7	i	2	0	.	-3	-10
